Screens from PubChem.
Rango-impB inh: qHTS Assay for Inhibitors of Rango (Ran-regulated importin-beta cargo) - Importin beta complex formation; Importin subunit beta-1 (Homo sapiens), Q14974; Rango CFP/YFP FRET sensor + importin beta, 45 min; Potency, µM (series often up to 92.2 µM), for inactives: top-dose inhibition of complex formation; hit rate 0.031% among 340,000; active = rising FRET ratio curve, often small or poorly fitted; inconclusive = mostly compound fluorescence or quenching in the first reads; inactive = flat curves in all reads;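 note: potency is the fitted concentration of half-maximal effect; 0% = DMSO wells and 100% = buffer wells lacking importin beta; nearly all actives have a fitted effect of over 15% in size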
Target sequence (Q14974 whole entry, looked up): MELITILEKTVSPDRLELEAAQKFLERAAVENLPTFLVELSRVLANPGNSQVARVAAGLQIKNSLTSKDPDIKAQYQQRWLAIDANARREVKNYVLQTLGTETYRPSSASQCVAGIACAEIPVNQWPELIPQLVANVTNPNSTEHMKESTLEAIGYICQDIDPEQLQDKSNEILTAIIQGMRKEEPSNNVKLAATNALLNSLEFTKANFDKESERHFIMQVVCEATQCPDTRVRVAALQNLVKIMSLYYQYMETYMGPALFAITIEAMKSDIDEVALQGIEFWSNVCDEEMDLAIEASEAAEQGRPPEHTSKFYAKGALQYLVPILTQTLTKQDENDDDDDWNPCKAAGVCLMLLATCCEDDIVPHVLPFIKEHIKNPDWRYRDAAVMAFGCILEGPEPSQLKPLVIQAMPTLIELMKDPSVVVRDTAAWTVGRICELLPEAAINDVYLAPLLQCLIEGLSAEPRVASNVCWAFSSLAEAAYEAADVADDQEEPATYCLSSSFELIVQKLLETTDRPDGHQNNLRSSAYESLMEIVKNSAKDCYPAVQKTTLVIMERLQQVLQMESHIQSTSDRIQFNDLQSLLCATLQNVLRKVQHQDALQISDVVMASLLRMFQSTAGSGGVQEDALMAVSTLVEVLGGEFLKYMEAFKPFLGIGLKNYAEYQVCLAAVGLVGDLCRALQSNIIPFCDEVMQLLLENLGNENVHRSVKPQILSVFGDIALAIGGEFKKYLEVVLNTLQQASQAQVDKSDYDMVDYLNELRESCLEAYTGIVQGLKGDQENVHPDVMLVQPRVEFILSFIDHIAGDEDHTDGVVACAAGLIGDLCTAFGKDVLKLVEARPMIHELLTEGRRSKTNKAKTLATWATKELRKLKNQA
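FRET biosensor (snurportin 1 IBB flanked by EYFP and cerulean), 50 nM, with compound 5 min, then 0.125 microM importin beta in PBS, 1 mM DTT, 0.02% Tween-20, 0.1% BSA. CFP/YFP ratio read after 45 min at room temperature; pre-read flags interference.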
miR-21 FLuc: qHTS Assay for Modulators of miRNAs and/orActivators of miR-21 | HeLa miR-21 FLuc reporter, luciferase, 48 h | 340,000 tested, under 10 active | Potency, µM (series often up to 38.3 µM), for the others: at the highest dose reporter change, positive = more light | AID 2288, 2010; active = well fitted rising curve with a large enough effect; inconclusive = small, poorly fitted or top-dose-only effect; inactive = no such curve, though single readings can be large or run the other way;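 note: % of control where 0% means no effect; miR-21 action dims this reporter so a rising signal means less miR-21 action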
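HeLa cells stably expressing CMV-driven firefly luciferase with a downstream miR-21 binding sequence, endogenously expressing miR-21, were treated with titrations (up to about 40uM final) for 48 hours at 37 degree Celsius. Luciferase luminescence was read after lysis.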
GLA inh pH 4.5: qHTS Assay for Inhibitors of Human alpha-Galactosidase at pH 4.5. Alpha-galactosidase A (Homo sapiens), P06280. 230,000 tested, under 10 active. AID 1467, 2008. purified enzyme, 4-MU-alpha-Gal fluorescence, pH 4.5. activity change, negative = inhibition, % at 105 µM; inconclusive = small, poorly fitted or top-dose-only inhibition, or a rising curve; inactive = flat fitted curve, though single readings scatter; no compound was filed as active;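 note: 0% = full activity with enzyme and -100% = basal without enzyme; dose as in the result columns while the protocol names 77 µM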
Rango dissoc inh: qHTS Assay for Inhibitors of RanGTP induced Rango (Ran-regulated importin-beta cargo) - Importin beta complex dissociation; hit rate 0.071% among 340,000; Biochemical FRET Rango-importin beta, RanGTP-induced dissociation; Potency, µM (top dose mostly 46.1 µM), without a hit: at the highest dose activity change, negative = inhibition; Snurportin-1 (Homo sapiens) + GTP-binding nuclear protein Ran (Homo sapiens) + Importin …; AID 540253, 2011; active means falling FRET ratio curve, often poorly fitted, with flat reads before Ran was added; inconclusive means other falling curves, or compound fluorescence or quenching; inactive means flat or rising ratio curve;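 note: potency is the fitted concentration of half-maximal effect; % of control where 0% means no effect; nearly all actives have a fitted effect of over 45% in size; -100% = wells without RanGTP and RCC1; the record marks most hits as doubtful in a second field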
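Compounds sat 5 min at room temperature with 0.1 uM Rango biosensor plus 0.25 uM importin beta, then FRET pre-read. RanGTP-RCC1 (0.6 uM Ran, 2mM GTP, 0.2 uM RCC1) added for 45 min, and the CFP/YFP post-read measured blocked complex dissociation.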
An asterisk follows results filed as active; ? = inconclusive; · = not tested or not shown; & = joins results of further samples. Not all compounds are listed. The share of hits here may be higher or lower than overall.

SMILES	Rango-impB inh	miR-21 FLuc	GLA inh pH 4.5	Rango dissoc inh
CC1CC(c2ccccc2)=Nc2ccccc2N1 (stereo not drawn)	?	-45%	·	-9%
O=C(Nc1ccc2nc3n(c(=O)c2c1)CCCCC3)C(=O)N1CCN(c2ccccc2F)CC1	-0.2%	-2%	·	-3%
CCOc1cc(-c2nc(-c3ccccc3)c(-c3cc([N+](=O)[O-])ccc3C)[nH]2)ccc1O	-0.7%	?	-14	20%
Cc1ccc(S(=O)(=O)N2CCN(C(=O)c3c(-c4ccccc4)noc3C)CC2)cc1C	-0.9%	5%	·	-4%
CCOc1ccccc1N(C)C(=O)c1cn(C)c(=O)c2ccccc12	?	3%	·	17%
CSc1cccc(NS(=O)(=O)c2ccc(C(C)=O)cc2)c1	-0.4%	3%	2	20%
Cc1ccc(S(=O)(=O)CCC(=O)OC(C)C(=O)Nc2ccc(N3CCOCC3)cc2)cc1 (stereo not drawn)	-1.1%	·	·	?
COc1c2ccoc2c(OCC=C(C)C)c2oc(=O)ccc12	?	-14%	7	-8%
O=C(OCc1ccccc1)N1CCCC1/C=C/CN1CCOCC1 (stereo not drawn)	-0.6%	-1%	3	1%
O=C(Nc1ccc(C(F)(F)F)cc1)C1CC(=O)N(c2ccc3c(c2)OCCO3)C1 (stereo not drawn)	-0.2%	-1%	1	-19%
CCN(CC)S(=O)(=O)c1ccc(N2CCOCC2)c(NC(=O)c2cc3ccccc3oc2=O)c1	-0.9%	1%	·	1%
NNC(=S)Nc1c(F)cc(F)cc1Br	?	0%	2	-4%
CC(NC(=O)c1ccc(CS(=O)(=O)c2ccc(Cl)cc2)o1)c1ccc2c(c1)OCCO2 (stereo not drawn)	0.5%	27%	-1	0%
CN1C(=O)c2cccc3c(S(=O)(=O)N(C)C)ccc1c23	?	-16%	·	?
CCC(=O)N(CCc1ccccc1C)Cc1cc2ccc(C)cc2[nH]c1=O	1.1%	-2%	·	-19%
COc1ccc(N=C2SC(CC(=O)Nc3ccc(F)cc3)C(=O)N2Cc2ccco2)cc1 (stereo not drawn)	0.2%	19%	-6	16%
COc1ccc(CNC(=O)CSc2n[nH]c(N)n2)cc1	1.7%	-5%	·	8%
Cc1cccc(NC(=O)c2sc(C)nc2C)c1	-0.1%	-53%	-4	6%
CCN(CC)CCOC(=O)c1ccc(NC(=O)CSc2nnc(-c3cccs3)n2CC)cc1	-0.6%	·	·	-5%
O=C(NNC(=O)c1sc2ccccc2c1Cl)Nc1ccc(Cl)cc1	-1.9%	-7%	7	-9%
O=C(NC1CCN(Cc2ccccc2)CC1)C1CCN(S(=O)(=O)c2ccc(Cl)cc2)CC1	-2.0%	10%	·	-2%
CCN(C(=O)CSc1nnc(-c2ccc3c(c2)OCO3)o1)C1CCS(=O)(=O)C1 (stereo not drawn)	1.1%	·	·	1%
CCC(C)/C(C)=N/Nc1ccc(S(N)(=O)=O)cc1[N+](=O)[O-] (stereo not drawn)	4.1%	4%	1	-5%
CCN(CC(=O)Nc1c(F)cccc1F)C(=O)C1CCN(C(=O)c2ccc(F)cc2)CC1	-0.3%	·	·	17%
NC(=O)NOCc1ccccc1	-0.2%	3%	7	-4%
Cc1cc(Cl)ccc1NC(=S)NC1CCCC1	-1.1%	-7%	·	-20%
CCN(Cc1ccncc1)Cc1ccc(OC)c(OC)c1	0.9%	-7%	·	3%
Oc1ccc(CNc2ccccc2O)cc1	-0.5%	-31%	1	?
Cc1cccc(NC(=O)CCNS(=O)(=O)c2ccc(Cl)cc2)c1	3.1%	-1%	·	-1%
CCc1sc(C(=O)N2CCN(C(=O)c3ccccc3)CC2)cc1C	1.4%	·	·	?
C/C(=N/NC(=O)c1ccncc1)c1cc2ccc(O)cc2oc1=O	?	-6%	?	?
Oc1c(Cl)cc(Cl)cc1/C=N/NC(=S)NC1CC2C=CC1C2 (stereo not drawn)	?	?	-6	?
COc1ccc2oc(C(=O)OCC(=O)N3CCCCC3)c(C)c2c1	-0.3%	·	·	4%
CCOC(=O)N1CCC(c2cc(=O)n(-c3ccccc3)[nH]2)CC1	-0.2%	0%	-4	-12%
CC[C@H](NC(=O)c1c(C)c(-c2ccccc2)nc2ccccc12)c1ccccc1	-1.2%	10%	-8&1&-4	-1%
N#CC1(NC(=O)CSc2nc3ccccc3s2)CCCCC1	2.2%	·	·	8%
CCN(C(=O)COC(=O)c1oc2ccc(OC)cc2c1C)C1CCS(=O)(=O)C1 (stereo not drawn)	2.5%	·	·	-23%
Cc1nnc2n1N=CC=C(c1ccccc1)S2	-2.3%	12%	3	8%
COc1ccc(NC(=O)COC(=O)c2cc(OC)c(OC)c(OC)c2)c([N+](=O)[O-])c1	9.7%	0%	-9	12%
CC(C)C(NC(=O)c1cccnc1)C(=O)O (stereo not drawn)	4.9%	-1%	1	-8%
CC1CCC2(CC1)NC(=O)N(NC(=O)CCc1c[nH]c3ccccc13)C2=O (stereo not drawn)	-0.9%	·	·	-1%
O=C(CC1SC(=Nc2ccccc2)N(CCCCO)C1=O)NCc1ccccc1 (stereo not drawn)	2.8%	-1%	1	-1%
CCOc1cc(/C=N\NC(=O)c2ccc(NC(=O)CC)cc2)ccc1OC(=O)c1ccccc1	?	-1%	2	3%
NS(=O)(=O)c1ccc(CCNC(=O)C(=O)NCC2OCCN2S(=O)(=O)c2ccc(F)cc2)cc1 (stereo not drawn)	2.0%	-2%	·	-8%
O=c1[nH]c2ccc(S(=O)(=O)N3CCCCC3)cc2s1	-3.1%	-4%	·	9%
CC1(C)OC1(C#N)c1ccccc1 (stereo not drawn)	1.9%	·	·	-14%
C/C=C(\C)C(=O)NNC(=O)c1sc(-c2ccccc2)nc1C	4.0%	-2%	-6	-16%
COc1ccc(C2Nc3ccccc3NC3=C2C(=O)CC(C)(C)C3)cc1O (stereo not drawn)	?	-23%	·	?
CN(C)c1ccc(CNC(=O)C2CCN(S(=O)(=O)c3ccc4c(c3)CCCC(=O)N4)CC2)cc1	1.7%	10%	·	7%
CC(Sc1nnc(-c2ccco2)n1N)C(=O)NCC1CCCO1 (stereo not drawn)	-0.1%	·	·	7%
O=S(=O)([O-])CCC[n+]1c(/C=C\Nc2ccccc2)oc2ccc(-c3ccccc3)cc21	·	-1%	6	·
CCCCCOC(=O)CSc1nc2c(c(=O)[nH]c(=O)n2C)n1Cc1ccc(Cl)cc1	-0.1%	-8%	7	25%
O=C(CSc1nc2c(c(C(F)(F)F)n1)CCc1ccccc1-2)NCc1ccc(F)cc1	-4.3%	-5%	6	0%
CC(C)(C)c1ccc(S(=O)(=O)NCc2ccc(C(=O)N3CCCC3)cc2)cc1	-0.2%	0%	0	-5%
O=C(c1ccc(OC2CCN(Cc3ccc(C(F)(F)F)cc3)CC2)cc1)N1CCCCC1	-0.9%	-3%	·	-15%
COc1ccc(NC(=O)C2CCCN(S(=O)(=O)c3ccc(Cl)cc3)C2)cc1OC (stereo not drawn)	-2.9%	1%	·	6%
Cc1ccc(S(=O)(=O)N2CCC(C(=O)Nc3nnc(COc4ccccc4)s3)CC2)cc1	0.4%	-1%	-11	-1%
Cc1c(OC(C)C(=O)NCCN2CCOCC2)ccc2c(-c3ccccc3)cc(=O)oc12 (stereo not drawn)	-1.9%	-12%	·	-6%
O=C(C1CC1)N1CCN(c2ccnc3cc(Cl)ccc23)CC1	-1.1%	5%	-4	-2%
Cc1cc(C(=O)COC(=O)c2ccc(O)cc2)c(C)n1CCc1ccc(F)cc1	?	-16%	-2	-30%
Remaining list, next part.
SMILES	Rango-impB inh	miR-21 FLuc	GLA inh pH 4.5	Rango dissoc inh
COc1cc(/C=C/C(=O)Nc2ccc(OC)c(S(=O)(=O)N3CCOCC3)c2)ccc1OCC#N	0.6%	·	·	-9%
CCOC(=O)CSc1nnc(-c2c[nH]c3ccccc23)n1CC	0.1%	1%	-2	-10%
COC(=O)CN1C(=O)S/C(=C/c2ccc(N3CCCCC3)o2)C1=O	?	-12%	-1	?
CN(C)c1ccc(C(=O)Nc2nc3c(s2)CCCC3)cc1	-1.5%	-42%	-20	11%
Oc1ccc(N=Nc2nc(-c3ccccc3)c(-c3ccccc3)[nH]2)cc1	6.3%	-3%	-9	-1%
COc1ccc(C2CC(c3cccs3)=Nc3ccccc3S2)cc1 (stereo not drawn)	1.0%	-38%	-7	-8%
COc1ccc2cc1Oc1ccc(cc1)CC1c3c(cc(OC)c4c3Oc3cc5c(cc3O4)CCNC5C2)CCN1C (stereo not drawn)	5.7%	?	-9	-12%
Cc1ccc(-n2c(C)csc2=N)cc1	1.8%	-55%	-3	0%
COc1ccc(C(=O)Oc2cccc(/C=N/NC(N)=S)c2)cc1	-1.9%	-12%	-8	13%
CC(NC(=O)/C(C#N)=C/c1ccc(C(=O)O)cc1)c1ccccc1 (stereo not drawn)	-2.3%	0%	-3	2%
C[C@@H]1COC(=O)[C@H](CC(=O)OC(C)(C)C)C/C=C\C[C@H](CC(=O)NCCO)C(=O)N1	-1.4%	·	·	16%
Cc1oc(-c2cccc(Cl)c2)nc1CS(=O)(=O)CC(=O)NCCN1CCOCC1	-2.3%	1%	·	-5%
CCNc1nc(NCC)nc(Oc2ccc(C(=O)OC)cc2)n1	-0.1%	-11%	1	2%
Cc1cccc(NC2CNC(=O)NC2=O)c1 (stereo not drawn)	0.1%	·	·	-1%
COc1ccc(OCCCC(=O)Nc2cc([N+](=O)[O-])ccc2C)cc1	0.1%	-7%	0	1%
CC(C)c1nnc(NC(=O)Cc2ccc(Br)cc2)s1	0.8%	-5%	13	-12%
O=C1/C(=C/c2cccnc2)SC(=S)N1c1ccc(F)cc1	-1.3%	-1%	4	-8%
CC1(C)CC(CCC(=O)NC(=S)Nc2ccccc2Cl)C(=O)O1 (stereo not drawn)	-1.0%	-15%	-13	12%
COc1ccc(OC)c(/C=N\NC(=O)CSc2nnc(CCCc3ccc(OC)c(C)c3)o2)c1	-1.2%	-6%	3	22%
CCOc1ccc(NS(=O)(=O)c2cc(NC(=O)CCNC(=O)c3ccco3)ccc2OC)cc1	3.2%	·	·	2%
O=S(=O)(Nc1ccc(O)c(NS(=O)(=O)c2ccccc2)c1)c1ccccc1	-0.5%	6%	·	-1%
c1ccc2c3nnc4n(c-3nc2c1)CCCS4	3.6%	-34%	0	26%
CN(N)c1nc(C(F)(F)F)nc2ccccc12	4.6%	15%	-6	0%
COC(=O)c1cc(S(=O)(=O)N2CCCC(C)C2)c[nH]1 (stereo not drawn)	-1.3%	0%	·	25%
CCc1ccccc1NC(=O)CN(C)C(=O)CSc1nn(-c2ccccc2)c(=S)s1	5.0%	0%	4	8%
Cc1cc(C)n2nc(C(=O)OCC(=O)Nc3ccc4c(c3)OCO4)nc2n1	0.7%	0%	10	-12%
COc1cccc2c(=O)n(CC(=O)Nc3ccccc3F)ccc12	-1.2%	-19%	2	0%
CCc1ccc(C2NC(=O)c3ccccc3O2)cc1 (stereo not drawn)	-1.9%	-4%	·	-18%
CC1CN(S(=O)(=O)c2cccc(C(=O)NCCc3ccc(S(N)(=O)=O)cc3)c2)CC(C)O1 (stereo not drawn)	?	·	·	12%
